From PubChem
VDR inhibitor: inhibitors of human vitamin D receptor; P11473; VDR-SRC2-3 peptide fluorescence polarization, 2 h; Potency, µM, inactives show max response, negative = inhibition, usual class: inhibitors; 400,000 compounds, 0.93% hits; active = well fitted inhibition curve with a large enough effect; also: series mostly up to about 120 µM
Target sequence (P11473 whole entry, looked up): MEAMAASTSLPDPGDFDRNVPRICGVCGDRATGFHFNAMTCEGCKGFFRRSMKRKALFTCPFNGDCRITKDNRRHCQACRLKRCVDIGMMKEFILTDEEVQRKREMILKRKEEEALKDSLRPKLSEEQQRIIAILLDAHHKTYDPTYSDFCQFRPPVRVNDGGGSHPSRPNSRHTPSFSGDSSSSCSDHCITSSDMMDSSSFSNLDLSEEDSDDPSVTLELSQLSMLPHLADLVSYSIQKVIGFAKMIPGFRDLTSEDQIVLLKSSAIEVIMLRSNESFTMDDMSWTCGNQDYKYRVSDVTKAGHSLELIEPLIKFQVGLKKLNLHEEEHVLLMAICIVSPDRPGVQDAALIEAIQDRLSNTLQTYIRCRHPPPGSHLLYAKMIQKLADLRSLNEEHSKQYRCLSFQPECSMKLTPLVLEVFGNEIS
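VDR–SRC2-3 interaction, FP format. Cmpds 23 nl via pintool, brief spin, 2 h ambient incubation.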
Numbers without * were called inactive; & = joins results of further samples. % is scaled to controls: 0 for no effect and ±100 for the full control effect; potency is read from the fitted curve at half-maximal effect. An excerpt. The share of hits here may be higher or lower than overall.

SMILES	VDR inhibitor
O=S(=O)(O)c1ccc(Nc2ncnc3c2ncn3[C@@H]2O[C@H](CO)[C@@H](O)[C@H]2O)cc1	6%
CC(C)(C)c1cc(CCC(=O)N2CCNCC2)c(C(C)(C)C)cc1O	-5%
CS(=O)(=O)N1CCCC(C(=O)Nc2ccc3c(c2)OCCO3)C1 (stereo not drawn)	8%
O=C(NCC1CCCO1)C1CCCN(S(=O)(=O)c2cccc3nsnc23)C1 (stereo not drawn)	-14%
O=C(NCc1ccccc1Cl)c1cc(C(=O)C2CC2)c[nH]1	7%
O=C(NCCCN1CCOCC1)c1cc(-c2ccc(F)cc2)nc2ccccc12	10%
CC(/C=N/NC(=O)c1ccncc1)=C\c1ccc(C(C)C)cc1	-5%
c1ccc(NC2=NCCN2CCC2CCCCC2)cc1	-15%
CN1CCN(c2ccc(NC(=S)NC(=O)c3cccc4c(Cl)cccc34)cc2)CC1	-1%
COc1ccc(NCc2cccn2-c2nnc(N3CCCCCC3)s2)cc1	-2%
CC(C)Oc1ccc(C(=O)O)cc1	-12%
O=C(CCCCCNC(=O)c1ccccc1Br)N=Nc1c(O)[nH]c2ccccc12	1%
COC(=O)C(CCSC)NC(=O)CNS(=O)(=O)c1ccc(Cl)cc1 (stereo not drawn)	9%
Nn1c(SCc2cn3ccccc3n2)nnc1-c1ccncc1	1%
COc1ccc(NC(=O)CCCSc2ccccc2)cc1S(N)(=O)=O	2%
CC(=O)c1cnc2nc(C(F)(F)F)nn2c1C	-10%
COCCNC(=O)CN1C(=O)CSc2ncccc21	10%
Cc1cccc(C(=O)NCC(=O)OCC(=O)c2ccc3ccccc3c2)c1	-11%
COc1ccc(-c2nc(S(=O)(=O)c3ccc(C)cc3)c(NCc3ccccc3)o2)cc1	-3%
CS(=O)(=O)N1CCSC1c1ccc(Br)cc1 (stereo not drawn)	6%

Look-ups from the results shown.
VDR inhibitor, `COC(=O)C(CCSC)NC(=O)CNS(=O)(=O)c1ccc(Cl)cc1` (stereo not drawn) is entered as 9%
VDR inhibitor, `CS(=O)(=O)N1CCSC1c1ccc(Br)cc1` (stereo not drawn) is entered as 6%
VDR inhibitor, `Nn1c(SCc2cn3ccccc3n2)nnc1-c1ccncc1` is entered as 1%
VDR inhibitor, `CC(C)(C)c1cc(CCC(=O)N2CCNCC2)c(C(C)(C)C)cc1O` is entered as -5%

The main list resumes; the 7 compounds before the break are reprinted first.
SMILES	VDR inhibitor
Nn1c(SCc2cn3ccccc3n2)nnc1-c1ccncc1	1%
COc1ccc(NC(=O)CCCSc2ccccc2)cc1S(N)(=O)=O	2%
CC(=O)c1cnc2nc(C(F)(F)F)nn2c1C	-10%
COCCNC(=O)CN1C(=O)CSc2ncccc21	10%
Cc1cccc(C(=O)NCC(=O)OCC(=O)c2ccc3ccccc3c2)c1	-11%
COc1ccc(-c2nc(S(=O)(=O)c3ccc(C)cc3)c(NCc3ccccc3)o2)cc1	-3%
CS(=O)(=O)N1CCSC1c1ccc(Br)cc1 (stereo not drawn)	6%
CCc1nc2sccc2c(=O)[nH]1	-1%
CCOC(=O)N1CCN(S(=O)(=O)c2ccc(C(=O)Nc3nnc(C)o3)cc2)CC1	-9%
O=S(=O)(N/N=C/c1ccc(N2CCOCC2)cc1)c1ccc(Br)cc1	-9%
CC1=C(C(=O)Nc2ccccc2)C(c2ccccc2C)n2nc(SCC(=O)c3ccc(C)cc3)nc2N1 (stereo not drawn)	0%
O=C(NCc1ccco1)c1cc2ccccc2o1	-7%
O=C(COc1ccccc1O)NC1CCCC1	8%
Cc1ccc(SCC(=O)NC2CC3CCC(C2)N3C)cc1 (stereo not drawn)	3%
CCCCOC(=O)C(C)Nc1n[nH]c(=S)[nH]c1=O (stereo not drawn)	-15%
CCC(OC(=O)CN1C(=O)C(=O)c2ccccc21)C(=O)Nc1ccccc1OC (stereo not drawn)	-20%
CC(=O)c1ccc(Cc2ccc(C(C)=O)cc2)cc1	-22%
Cc1onc(-c2ccccc2)c1C(=O)Oc1cccnc1	7%
COc1ccc(C(=O)C2CCCN(S(=O)(=O)c3cccnc3)C2)c(C)c1 (stereo not drawn)	-19%
CN1CCN(c2ccccc2NC(=O)c2ccc([N+](=O)[O-])o2)CC1	8%
Cc1ccc(S(=O)(=O)NCC(=O)N(CC(=O)NCC2CCCO2)c2cccc(F)c2)cc1 (stereo not drawn)	2%
Cc1ccc(NC(=O)COC(=O)Cc2ccsc2)cc1S(=O)(=O)N(C)C	8%
Cc1ccc(C)c(N=C2NC(=O)CS2)c1	1%
CCOP(=O)(OCC)C(Nc1ccccc1)c1cccnc1 (stereo not drawn)	-2%
COc1ccc(C2c3c(ccc4ccccc34)Oc3ncn4nc(-c5ccco5)nc4c32)cc1 (stereo not drawn)	-3%
Cc1ccc(C)c(N2CCN(S(=O)(=O)c3ccc(-c4coc(C)n4)cc3)CC2)c1	-3%
CCCCN(C)C(=O)Cn1c(C2CC(=O)N(c3ccc(C)cc3)C2)nc2ccccc21 (stereo not drawn)	11%
CCOC(=O)c1c(CC(C)C)csc1NC(=O)c1ccccc1C(=O)O	-1%
CCc1ccc(C(=O)CN2C(=O)C(C)N(c3ccc(C)cc3)C2=O)cc1 (stereo not drawn)	-9%
c1cc2c3c(cccc3c1)NN=N2	-8%
O=C(NCCc1ccccc1C(F)(F)F)C1CCC(=O)N(C2CC2)C1 (stereo not drawn)	8%
CCn1c(C)nnc1SCC(=O)Nc1ccc(N2CCOCC2)cc1	-1%
O=C(CSc1nnnn1-c1ccc(F)cc1)Nc1nc2ccccc2s1	12%
O=C(C1CCN(Cc2nc(Cc3cccc(F)c3)no2)CC1)N1CCOCC1	22%
O=C(Nc1ccc(Cl)cc1C(F)(F)F)c1cc(S(=O)(=O)NCc2ccccc2)ccc1F	10%
CC(=O)N1CCc2ccc(S(=O)(=O)N3CCc4ccccc43)cc21	-15%
CCOC(=O)c1ccc(N2C(=O)c3[nH]nc(-c4ccc(OCC)cc4)c3C2c2cccs2)cc1 (stereo not drawn)	-19%
Cc1cccc(NC(=O)COC(=O)c2ccc(S(=O)(=O)N3CCCCCC3)cc2)c1	3%
CCc1cccc(CC)c1NC(=S)N1CCn2cccc2C1c1cccnc1 (stereo not drawn)	-2%
CCc1cc(Cn2nc(-c3ccccc3)cc2C(=O)NCC2CC2)on1	8%
COCCn1c(C)cc(C(=O)COc2cccnc2[N+](=O)[O-])c1C	2%
O=C(CSc1nc(-c2ccccc2)no1)N1CCN(c2ccccc2F)CC1	-5%
CSCC[C@@H](C(=O)NCCCCCCCCCCC(=O)N1CCNCC1)n1cc(CCO)nn1	-3%
COc1ccc(CNC(=O)Cn2nc(C)c3nn(-c4ccc(Cl)cc4)c(C)c3c2=O)cc1	3%
CCC(c1nnc(SCC(=O)Nc2ccc(N3CCOCC3)cc2)n1Cc1ccccc1)N(C)C (stereo not drawn)	2%
Cc1snnc1C(=O)NC(=S)Nc1ccccc1	-5%
COc1c(C)cc(C(=O)C2CCCN(C(=O)CCc3scnc3C)C2)cc1C (stereo not drawn)	3%
COCCN(C(=O)CSc1nnc(-c2ccccc2F)o1)c1c(N)n(CC(C)C)c(=O)[nH]c1=O	-7%
O=C(CCC(=O)OCc1cccc([N+](=O)[O-])c1)Nc1ccc(F)cc1	-3%
O=C(NCc1cccc(Cl)c1)c1ccc(CS(=O)Cc2ccc(Cl)cc2)o1 (stereo not drawn)	2%
CCOC(=O)N1CCN(C(=O)CSc2nnc(-c3ccc(C)c(C)c3)o2)CC1	1%
COc1ccc(CNS(=O)(=O)c2ccc(S(=O)(=O)NC3CC3)cc2)cc1	4%
CCS(=O)(=O)c1c(Nc2ccc(F)c(Cl)c2)sc(C(=O)c2ccccc2)c1N	-11%
Cc1cc(C(=O)Nc2sc3c(c2C#N)CCC(C)C3)no1 (stereo not drawn)	-12%
COc1ccccc1NC(=O)C1=C(C)Nc2nnnn2C1c1cc(Br)c(O)c(OC)c1 (stereo not drawn)	-6%
O=C(CNC(=O)c1ccco1)NCC(=O)OCc1cccc(Cl)c1	-11%
NC(=O)NC(=O)CN1C(=O)NC(c2ccccc2)(c2ccccc2)C1=O	10%
COc1ccccc1C(=O)Nc1cccc(OCc2cc(=O)n3c(C)csc3n2)c1	-10%
Cc1ccc(CN2CCSc3ccc(C(=O)NCc4cccnc4)cc32)cc1	-6%
COc1ccc(S(=O)(=O)NC(C)C(=O)NCc2ccncc2)cc1OC (stereo not drawn)	8%
COC[C@@H]1NS(=O)(=O)c2ccc(Br)cc2O[C@H]1c1ccccc1	-28%
COc1ccc(/C=N/NC(=O)c2ccn[nH]2)cc1CSc1ccccn1	-6%
Cc1ccc(N(C)C(=O)CCNC(=O)Cn2cnc3ccccc3c2=O)cc1C	-12%
COc1cc2c(c(OC)c1OC)-c1c(cc(OC)c(OC)c1OC)C[C@](C)(O)[C@@H](C)C2	-3%
O=C(CSc1nnc2ccccn12)Nc1cccc(S(=O)(=O)N2CCOCC2)c1	-22%
Nc1ccn(-c2ccc(Cl)cc2)c(=O)c1	1%
O=C(COC(=O)CCN1C(=O)c2ccccc2C1=O)Nc1ccc(S(=O)(=O)N2CCCC2)cc1	-12%
Further entries.
SMILES	VDR inhibitor
CCCCCn1c(=O)[nH]c2cc(C(=O)NCCCN(CC)CC)ccc2c1=O	18%
C[C@H]1CN([C@@H](C)CO)C(=O)Cc2cc(NC(=O)CCC(F)(F)F)ccc2O[C@H]1CN(C)C(=O)Nc1ccc(F)cc1	3%
CCOC(=O)C1=CNS(=O)(=O)NC1c1ccc(OC(C)=O)cc1 (stereo not drawn)	-13%
O=C1NCC(O)=C1C=NCCCO	4%
O=C(OC1C[C@H]2CC[C@@H](C1)[N+]21CCCC1)C(O)(c1ccccc1)c1ccccc1 (stereo partly drawn)	6%
Cc1cc(NC(=O)CCC(=O)N(Cc2ccco2)C2(C(=O)NC3CCCCC3)CCCC(C)C2)no1 (stereo not drawn)	-7%
COc1ccc(-c2cc(C(=O)Nc3c(C(=O)c4ccc(C)c(F)c4)oc4ccccc34)no2)cc1	18%
COc1ccccc1N1CCN(C(=O)c2ccc(Cl)c(S(=O)(=O)N3CCOCC3)c2)CC1	-9%
CC(C)CC(=O)NC(=S)Nc1ccc(N2CCCC2)c(Cl)c1	9%
Cc1ccc(C)c(OCCC(=O)OCC(=O)NC(=O)NC2CCCCC2)c1	15%
CCCCOP(=O)(OCCCC)C(O)c1ccc(N(C)C)cc1 (stereo not drawn)	-1%
COc1ccc(CCNC(=O)Cn2cc(C(=O)c3ccc(Cl)cc3)c(=O)c3ccc(C)nc32)cc1OC	5%
NC(=O)C1CCN(c2nc(-c3ccccc3N)cs2)CC1	-5%
CSc1nc(S(C)(=O)=O)nc2[nH]c(=O)[nH]c12	-7%
COc1ccc(S(=O)(=O)n2cnc3cc(C)c(C)cc32)cc1	7%
CCOc1ccc(NS(=O)(=O)c2ccc(C(=O)NCCCN3CCCC3=O)cc2)cc1	-19%
COc1ccc(NC(=O)N2CC[C@@]3(CCCN(C(=O)c4cc(C(F)(F)F)cc(C(F)(F)F)c4)C3)C2)cc1	0%
COc1ccc(C2/C=C\CN(C(=O)OCc3ccccc3)CC(=O)N2Cc2ccc(F)cc2)cc1 (stereo not drawn)	8%&2%
Cc1ccc(S(=O)(=O)N2CCN(Cc3cc(=O)n4ccccc4n3)CC2)c(C)c1	5%
CN1C(=O)/C(=C/c2cn(CC(=O)N3CCCCC3)c3ccccc23)NC1=S	-4%
COCCCNC(=S)N/N=C/c1ccc(N(C)C)cc1Cl	10%
COc1ccc(NC2=CC(=S)NC(C)(C)C2)cc1	-19%
Cc1nc(CC(=O)Nc2ccc(C)c(C)c2)cs1	-8%
CCOc1ccccc1C(=O)Nc1ccc(S(=O)(=O)N2CCOCC2)cc1	-11%
CCOc1ccc(C(=O)Nc2cccc(-c3ccc(N4CCOCC4)nn3)c2)cc1OCC	16%
CCCCC/C=C\C/C=C\CCCCCCCCCC(=O)NCC(=O)O	-3%
O=C(Nc1ccccc1Cl)c1cc2c(-c3ccccc3)nn(-c3ccccc3)c2s1	-21%
Cc1cc2oc(=O)cc(-c3ccccc3)c2c(C)c1-c1cccc(N)c1	-6%
COc1c2c(c(OC)c3c1c(=O)c1ccccc1n3C)OCO2	-24%
CCn1c(=O)cc(O)c2ccccc21	-19%
COc1cccc(-c2nc(NCc3ccccc3)c3ccccc3n2)c1O	-4%
COc1ccc(C(=O)NCC(=O)N2CCc3ccccc3C2)cc1	-13%
COc1ccccc1CN1CC2(CCN(S(C)(=O)=O)CC2)C1	-3%
C#Cc1cccc(-n2nnc(C(=O)OC)c2-c2ccccc2)c1	-9%
COc1ccc(OC)c(NC(=O)CN(C)S(=O)(=O)c2ccc3[nH]c4c(c3c2)CCCC4)c1	10%
Cn1cc(/C=C2\SC(=O)N(c3ccccc3)C2=O)c2ccccc21	9%
Cc1cc(C)nc(NS(=O)(=O)c2ccc(NC(=O)c3cc(-c4ccccc4)nc4ccccc34)cc2)n1	15%
Cc1cnc(CNc2ncnc3ccc(-c4ccccc4Cl)cc23)cn1	-3%
CC1(C)CC(NC(=O)COc2ccccc2Cl)CC(C)(C)N1	-24%
Cc1ccccc1N(C(=O)c1snc(C(N)=O)c1N)C(C(=O)NCC1CCCO1)c1ccc(N(C)C)cc1 (stereo not drawn)	-2%
CC(C)N(Cc1ccccc1)C(=O)CN1C(=O)NC2(CCCCCC2)C1=O	5%
CC(NCC(O)COCc1ccc(Cl)cc1)c1ccccc1 (stereo not drawn)	3%
CC(Oc1cccc(Cl)c1)C(=O)Nc1cc(=O)n(C)c(=O)n1C (stereo not drawn)	-2%
COC(=O)CC(=O)O[C@H]1C=C[C@@H](NC(=O)OC(C)(C)C)C1	7%
Cc1cc2nc3ccc(N(C)C)cc3nc2cc1N	79µM*

Arranged by the number under VDR inhibitor (high to low): some entries from above.
| mol | VDR inhibitor |
| --- | --- |
| CCOC(=O)N1CCN(C(=O)CSc2nnc(-c3ccc(C)c(C)c3)o2)CC1 | 1% |
| CCc1nc2sccc2c(=O)[nH]1 | -1% |
| COc1ccc(-c2nc(S(=O)(=O)c3ccc(C)cc3)c(NCc3ccccc3)o2)cc1 | -3% |
| COCCN(C(=O)CSc1nnc(-c2ccccc2F)o1)c1c(N)n(CC(C)C)c(=O)[nH]c1=O | -7% |
